MLL AF4-AF9 inh: MLL-AF4/AF9 protein interaction inhibition. AlphaScreen, biotin-AF4 peptide binding to FLAG-AF9. 350,000 compounds, 0.47% hits. inhibition, % at 10 µM;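 active = every replicate reaching a set inhibition limit, whatever the replicate mean, cut at about 25% in these data; inconclusive = mean inhibition reaches that limit but some replicates miss it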;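 also: 0% = plate neutral control median and 100% = total signal loss; the record names both 10 and 1 µM as test concentration; the first replicate is given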
Target sequence (P42568 whole entry, looked up): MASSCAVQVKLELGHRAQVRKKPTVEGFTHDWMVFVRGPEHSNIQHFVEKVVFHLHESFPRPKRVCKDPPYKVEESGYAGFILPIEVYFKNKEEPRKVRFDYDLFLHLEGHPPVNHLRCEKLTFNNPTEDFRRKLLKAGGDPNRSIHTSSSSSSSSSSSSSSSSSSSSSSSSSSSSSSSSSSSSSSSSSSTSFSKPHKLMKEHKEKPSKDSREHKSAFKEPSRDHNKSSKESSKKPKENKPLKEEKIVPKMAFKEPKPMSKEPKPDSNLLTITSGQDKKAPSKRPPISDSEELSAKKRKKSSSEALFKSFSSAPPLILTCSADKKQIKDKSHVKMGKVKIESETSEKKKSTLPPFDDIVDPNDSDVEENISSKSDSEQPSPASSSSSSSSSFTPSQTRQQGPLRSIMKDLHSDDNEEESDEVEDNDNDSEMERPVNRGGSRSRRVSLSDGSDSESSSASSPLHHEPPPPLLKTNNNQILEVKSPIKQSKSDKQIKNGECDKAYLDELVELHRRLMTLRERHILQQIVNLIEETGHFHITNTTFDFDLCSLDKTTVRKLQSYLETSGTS
Calb FLC: C. albicans growth modulation with fluconazole. C. albicans CaCi-2 (fluconazole-resistant clinical isolate) + fluconazole, Alamar Blue growth, 48 h. AID 1979. 300,000 compounds, 0.57% hits. growth inhibition, % (concentration not given with the values);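 active = most replicates above 75%; inconclusive = exactly half above 75%; inactive = most below 75%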;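 also: all wells also contain fluconazole at 8 µg/ml as a sub-toxic cotreatment; 0% = median of DMSO wells and 100% = median of geldanamycin control wells; wells of about 8 µL received 7.5 nL stock; the first replicate is given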
Bfl-1 A1 inh: inhibitors of the anti-apoptotic protein A1, read as caspase activation. MEF A1-2A-BIM cells, Caspase-Glo 3/7 luminescence, 3 h; percent of clofoctol response, vehicle zero. caspase activation, % (concentration not given with the values). 330,000 compounds, 0.066% hits;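 active = over half of replicate activation scores above 10%, or exactly half above 10 with the replicate mean above 10; inconclusive = replicate mean below 10 yet half the replicates above 10; inactive = over half of replicates below 10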;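 also: wells of about 30 µL received 50 nL stock; many hits fall short of the cut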
Vif TR-FRET: inhibitors of Vif binding to APOBEC3G peptide, primary screen, biochemical, TR-FRET, GST-Vif 1-94, biotin-A3G peptide, dose response retest (AID 1117319) | inhibition, %, or IC50 in µM where a hit was titrated | 260,000 compounds, 0.57% hits | TR-FRET GST-Vif / biotin-A3G peptide binding; higher % means a stronger effect; test concentration not given here; strong numbers were not always called active;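 active = above the screen mean plus three standard deviations and confirmed in dose response; inconclusive = results disagree or hit not tested in dose response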;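 also: Vif residues 1-94 fused to GST binding biotinylated APOBEC3G peptide 110-148; 0% = full assay without inhibitor and 100% = GST in place of GST-Vif; retest series ran down from 100 µM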
RanGTP-Imp inh: inhibitors of RanGTP-importin-beta interaction, primary screen, biochemical, FRET, CFP-Ran, YFP-importin-beta, homogeneous. cell-free CFP-Ran/YFP-importin-beta FRET ratio. AID 2216. 300,000 compounds, 1.1% hits. inhibition, % (test concentration not listed);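 active = most replicates above 15%; inconclusive = exactly half above 15%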;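 also: 0% = DMSO wells and 100% = Ran loaded with GDP instead of GTP; wells of about 40 µL received 100 nL stock; the first replicate is given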
rRNA inh HTS: selective bacterial rRNA inhibition in E. coli | E. coli WT GFP vs humanized-ribosome RFP mutants, fluorescence, 24 h; hits give low values; DMSO median 0, no signal -100 | GFP signal change (wild-type ribosome), % (no concentration beside the values) | 350,000 compounds, 1.6% hits | AID 720706;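 active = significant combined selectivity score with lowered wild-type GFP, culture density cut under 30%, mutant RFP and density less affected; inactive = any of these conditions unmet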; also: one replicate is shown; some compounds called inactive have numbers as strong as hits
T cruzi repl: T. cruzi replication inhibition | T. cruzi beta-gal in NIH3T3, luminescence, 90 h | inhibition, % (test concentration not listed) | 300,000 compounds, 1.4% hits | AID 1885;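 active = mean inhibition across valid replicates above about 55%, limit read from the data; inconclusive = mean below that limit but half or more replicates reach it; inactive = mean below it, under half of replicates reach it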;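 also: signal also drops with host cell toxicity which is not excluded here; 0% = plate median of DMSO wells and 100% = zero luminescence signal; higher percent means less beta-gal luminescence so fewer parasites; stock transfer was 50 nL into about 50 µL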
Beta cell apopt: beta cell apoptosis inhibition. INS-1E cytokine-induced death, ATP luminescence, 48 h; percent of positive-control rescue, neutral wells zero. protection from apoptosis, % (no concentration beside the values). 300,000 compounds, 0.8% hits. AID 435005;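 active = all replicates at 75% or more, or half of them and the mean; inconclusive = half reach 75% but not the mean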;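 also: 0% = cytokine-treated negative control wells and 100% = positive control rescue; higher means more ATP so stronger rescue from cytokine killing; wells of about 40 µL received 100 nL stock; the first replicate is given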
rRNA inh HTS OD600: also measured in rRNA inh HTS; calls as there; OD600 change, %; measured here: OD600 growth;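 optical density of the mix in the first replicate; 0 = DMSO median and -100 = no signal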
rRNA inh HTS RFP: further read-out of rRNA inh HTS, marked with its call; RFP signal change, %; measured here: RFP humanized mutant strains;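 first replicate; 0 = DMSO median and -100 = no signal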
Numbers without * were called inactive; ? = inconclusive; . = not tested or not shown. The list is partial, so the mix of outcomes need not match the whole.

structure	MLL AF4-AF9 inh	Calb FLC	Bfl-1 A1 inh	Vif TR-FRET	RanGTP-Imp inh	rRNA inh HTS	rRNA inh HTS OD600	rRNA inh HTS RFP	T cruzi repl	Beta cell apopt
COc1ccc(-c2c(C#Cc3ccsc3)c3cc(-c4ccc5cc[nH]c5c4)ccc3n2C)cc1	-14	.	2.4	.	.	0	8	8.9	.	3
CCN(Cc1ccncc1)C(=S)Nc1c(C)cccc1C	.	26	0.5	-2%	2.6	.	.	.	-20	-8
CCOc1ccc2nc(SCC(=O)NC(=O)C(C)C)sc2c1	2.7	-2	.	.	0.3	-3	11	-3.4	-12	.
CC(=O)c1sc(NC(=O)c2cc(-c3ccccc3)nn2-c2ccccc2)nc1C	-3.8	0	-0.4	.	0.3	17	14	1.3	-2	-6
CNc1nc(Sc2ccccc2)cc(C(F)(F)F)n1	.	-11	-1.2	7%	2.8	-3	8	-2.3	-14	-3
CCCN(CCC)c1cc(Cl)nc(N)n1	-4.6	-4	0.8	6%	-1.2	-9	-6	-8.7	-6	-15
Cc1ccc(F)cc1S(=O)(=O)Nc1cccc(C(=O)N2CCCC(C(N)=O)C2)c1 (stereo not given)	-1.7	.	0.8	-6%	.	.	.	.	.	-2
CC(=O)Nc1cccc(/C(C)=N/NS(=O)(=O)c2ccc(C)cc2)c1	0.5	?	0.7	9%	?	4	-1	-0.1	1	.
COc1ccc(/C=N/N=C2/CC(C)(C)Cc3n[nH]c(=O)cc32)cc1	1.6	-5	1.1	1%	4.0	15	13	0.8	-21	.
Cc1ccc(C(=O)NNc2ncnc3c2cnn3C)cc1	.	-3	-0.7	-7%	-1.7	17	12	1.3	12	2
CCN(CC)Cc1cc(NC2=NS(=O)(=O)c3ccccc32)ccc1OC(=O)C(C)C	.	21	0.2	1%	4.3	.	.	.	-24	0
Brc1ccc(-c2nc3ncccn3c2NC2CCCCC2)o1	.	-3	1.5	22%	1.5	.	.	.	3	.
CSCC(NS(=O)(=O)c1ccc(C)cc1)C(=O)O (stereo not given)	-0.5	-34	0.5	-2%	3.4	13	5	0.4	4	-2
COc1ccc2c(c1OC)C(=O)N(c1nccs1)C2	.	2	-2.6	20%	2.0	.	.	.	-11	-10
CC(=O)Nc1c(C(=O)C2CC2)oc2ccccc12	17	24	0.5	1%	-1.5	11	2	-3.5	-10	-17
CCNc1nc(Cl)nc(NCCOc2ccc(C)cc2)n1	.	-29	0.1	-6%	1.2	.	.	.	-1	-4
CCC(SC1=NCCS1)C(=O)Nc1ccc(S(N)(=O)=O)cc1 (stereo not given)	-1.4	?	1.0	-8%	-1.0	4	6	-5.0	-4	1
COC(=O)c1c(NC(=O)CSc2nnc(-c3ccco3)n2Cc2ccccc2)sc(C)c1C	.	-6	0.5	2%	2.8	.	.	.	39	-13
O=[N+]([O-])c1cc(/C=N/OCc2c(Cl)cccc2Cl)ccc1N1CCOCC1	.	8	-0.2	15%	-1.2	.	.	.	20	4
CCN(CC)C(=O)c1ccc(COc2ccc(Cl)c(C)c2)o1	-1.0	-3	-0.7	5%	5.1	-25	-34	-11	-14	10
O=C(NC(=S)Nc1ccc(N2CCCC2)cc1)c1ccccc1[N+](=O)[O-]	2.2	-26	0.1	18%	7.3	.	.	.	30	1
CC(C)CC(=O)NC(c1cccs1)c1ccc2cccnc2c1O (stereo not given)	.	107*	0.8	15%	1.2	.	.	.	60*	110*
Cc1nc([N+](=O)[O-])cn1CC(=O)c1ccc(OC(F)(F)F)cc1	.	2	-0.2	-4%	-0.4	.	.	.	-1	2
N#Cc1ccccc1OCC(=O)N1CCN(S(=O)(=O)c2ccc(Cl)cc2)CC1	4.4	.	-0.2	.	.	-4	-5	1.3	.	1
CNC(=O)C1CC(=O)N(Cc2ccc3c(c2)OCO3)C(=Nc2ccc(F)cc2)S1 (stereo not given)	-2.4	2	-0.1	-2%	0.1	2	1	-5.8	9	2
CCCNC(=O)C1CCC(CNS(=O)(=O)c2ccc3c(c2)CC(C)N3C(C)=O)CC1 (stereo not given)	-1.4	0	0.3	.	3.1	4	1	-4.8	-9	0
O=S(=O)(c1ccccc1)C1(C2CC(c3ccccc3)=NO2)CC(O)C1 (stereo not given)	-1.3	-13	0.3	.	0.4	-5	0	3.9	19	-1
CC(OC(=O)c1ccco1)C(=O)NCc1ccc2c(c1)OCO2 (stereo not given)	-1.1	-10	0.1	.	0.4	14	8	5.1	-4	-6
CC(C)(C)c1ccc(NC(=O)COC(=O)c2ccc(CN3CCCC3=O)cc2)cc1	-1.0	.	-0.8	-7%	.	3	-2	1.3	.	-9
Cc1cc(C)nc(Nc2ccc(C)c([N+](=O)[O-])c2)n1	8.0	27	-2.0	.	4.0	-35	-62	-10	2	3
Cc1ccc(CNC(=O)COC(=O)Cc2ccc(-c3ccccc3)cc2)cc1	.	-5	-0.2	16%	-1.2	.	.	.	-11	-2
Cc1onc(-c2c(F)cccc2Cl)c1C(=O)Nc1cccc(S(=O)(=O)N2CCOCC2)c1	0.6	.	0.0	3%	.	-3	-21	1.7	.	-3
O=C(Nc1cccc2ccccc12)N1CCN(Cc2ccccc2)CC1	.	-5	-0.5	21%	-1.2	.	.	.	10	9
CCn1nc(CC(=O)Nc2nnc(CC(=O)N3CCCCC3)s2)c2ccccc2c1=O	.	8	.	12%	2.8	.	.	.	-7	.
CCCCn1c(N)c(N(CCOC)C(=O)COC(=O)CCOc2ccccc2C)c(=O)[nH]c1=O	-3.3	7	0.1	3%	1.7	2	6	-1.9	4	.
CC1CCC(C(C)C)C(OCC(O)CNC(C)(C)C)C1 (stereo not given)	0.5	-43	-0.3	-13%	2.2	-14	-15	0.0	21	-3
CCCCN(CCCC)CCNC(=O)CN1C(=O)COc2ccc(S(=O)(=O)N3CCOCC3)cc21	-7.6	-10	0.5	1%	3.3	13	16	0.9	13	0
CC(C)NS(=O)(=O)c1ccc(CCC(=O)N2CCc3ccccc3C2)cc1	-4.4	4	-0.3	1%	1.3	-17	-14	0.2	6	3
N/C(=N\OC(=O)c1cnn(-c2ccccc2)c1C(F)(F)F)c1cc(C(F)(F)F)cc(C(F)(F)F)c1	.	3	0.0	16%	-0.5	7	13	0.5	-12	-2
Cc1nc(C)c(C(=O)NNS(=O)(=O)c2ccccc2)s1	0.4	-5	0.2	?	0.4	12	12	2.0	-13	-4
COCC1CCN(C(=O)c2ccc(OC)c(OC3CCN(C(C)C)CC3)c2)CC1	0.9	0	2.8	.	-3.8	4	-9	-1.6	5	-6
O=C(c1cc2cc(F)ccc2[nH]1)N1CCN(Cc2ccc3c(c2)OCO3)CC1	0.7	5	-1.0	.	-2.8	-40*	-27*	-3.2*	21	3
COc1cc(OC)cc(-c2nc(-c3cccs3)no2)c1	-2.3	1	-2.8	-19%	0.1	12	11	1.2	1	-6
O=c1cc(N/N=C/c2ccccc2)[nH]c(=O)[nH]1	2.0	9	0.4	.	-0.2	16	29	7.4	-3	64
C=CCSc1ncccc1C(=O)NCc1ccccc1	5.7	0	.	1%	1.9	1	-24	-8.2	6	.
C=CCc1ccccc1OCCn1nnc2ccccc21	-1.0	-17	-0.2	0%	4.4	-4	-2	4.8	-1	-3
CN(C)S(=O)(=O)c1ccc(NC(=O)C2CC(=O)N(Cc3ccccc3Cl)C2)cc1 (stereo not given)	-15	.	-0.4	0%	-1.0	-4	-14	-1.2	0	4
OCC1CCN(Cc2nc(Cc3ccccc3Cl)no2)CC1	0.9	2	-0.3	4%	-1.8	3	9	-0.8	-21	1
COc1ccc(C(=O)NC(=S)NNC(=O)c2ccncc2)cc1Br	-9.2	.	-0.2	-7%	.	-39	-50	0.5	.	2
CC(C)(O)c1cc(=O)sc2nc3ccccc3n12	.	3	-2.8	32%	-0.7	.	.	.	0	1
C(=Nc1cccc2c(N=Cc3ccco3)cccc12)c1ccco1	.	38	-0.1	.	6.5	.	.	.	11	.
CC(=O)N1CCN(C(=O)CSc2nnc(C)n2-c2ccccc2)CC1	-4.3	2	-0.4	-3%	6.8	7	10	7.3	-5	-3
O=c1ccc(-c2ccccc2)nn1Cc1ccccc1F	-19	-3	1.4	.	-2.0	-15	-21	1.3	8	.

Fetched one by one from above, 2 records:
structure	MLL AF4-AF9 inh	Calb FLC	Bfl-1 A1 inh	Vif TR-FRET	RanGTP-Imp inh	rRNA inh HTS	rRNA inh HTS OD600	rRNA inh HTS RFP	T cruzi repl	Beta cell apopt
C=CCc1ccccc1OCCn1nnc2ccccc21	-1.0	-17	-0.2	0%	4.4	-4	-2	4.8	-1	-3
OCC1CCN(Cc2nc(Cc3ccccc3Cl)no2)CC1	0.9	2	-0.3	4%	-1.8	3	9	-0.8	-21	1

By substructure, the compounds so far with bromine
structure	MLL AF4-AF9 inh	Calb FLC	Bfl-1 A1 inh	Vif TR-FRET	RanGTP-Imp inh	rRNA inh HTS	rRNA inh HTS OD600	rRNA inh HTS RFP	T cruzi repl	Beta cell apopt
Brc1ccc(-c2nc3ncccn3c2NC2CCCCC2)o1	.	-3	1.5	22%	1.5	.	.	.	3	.
COc1ccc(C(=O)NC(=S)NNC(=O)c2ccncc2)cc1Br	-9.2	.	-0.2	-7%	.	-39	-50	0.5	.	2

Source: PubChem BioAssay (several laboratories)
